Screening data (PubChem BioAssay)
Fluorescein fluor = compound fluoresces in the fluorescein spectral region | 0.91% of 59,000 active | Compound autofluorescence, 480/540 nm, fluorescein-equivalent; stronger effect = higher value | max fluorescein-equivalent concentration, M | AID 593; in the data active = max fluorescein-equivalent concentration above about 10 nM; inconclusive = between about 1.1 nM and that limit
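Spectral profiling of library compounds in the fluorescein window (480 nm excitation, 540 nm emission) after 15 min at room temperature in pH 8.0 Tris (100 mM). Values are dye-equivalent concentrations.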
Texas Red fluor = Texas Red region autofluorescence. Compound fluorescence, Texas Red channel, 547/618 nm; stronger effect = higher value. max dye-equivalent concentration, M. 0.06% of 59,000 active. AID 587; in the data active = max dye-equivalent concentration above about 10 nM; inconclusive = between about 1.1 nM and that limit
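Texas Red-region profiling: compounds in 100 mM Tris pH 8.0 were read at 547/618 nm after 15 min at room temperature. Intensities were normalized against a six-point Texas Red standard series to give dye-equivalent concentration.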
HEK293 cAMP cs = parental HEK293 cAMP activation (counter-screen). Potency, µM (series often up to 57.1 µM), without a hit: at the top dose activation, usual class: activators. AID 938. 2.5% of 73,000 active. parental HEK293 CNG cAMP sensor, membrane potential fluorescence; also: potency is read from the fitted curve at half-maximal effect; % of control where 0% means no effect; nearly all actives have a fitted effect of over 55% in size
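Parental HEK 293 cells stably expressing a modified CNG channel (no TSHR) report cAMP rise as membrane depolarization. Membrane potential dye with 100 uM RO 20-1724 was loaded for 60 min at room temperature, then compound added for 30 min; fluorescence read at 590 nm.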
Rhodamine fluor = compound autofluorescence in rhodamine spectral region | Rhodamine-region fluorescence, 547/598 nm, Tris buffer; stronger effect = higher value | max dye-equivalent concentration, M | 0.05% of 59,000 active; in the data active = max dye-equivalent concentration above about 11 nM; inconclusive = between about 1.1 nM and that limit
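Intrinsic compound fluorescence, ex 547 / em 598 nm, CCD imager. Tris 100 mM pH 8.0; 15 min RT. Output = rhodamine dye-equivalent concentration at each compound concentration.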
ERK AVP block = blocks ERK signaling stimulated by vasopressin | HEK293-V1b, vasopressin-stimulated pERK AlphaScreen | Potency, µM (series often up to 57.5 µM), for inactives: top-dose activity, negative = inhibition, actives largely listed as inhibitors | 0.99% of 72,000 active; also: potency is read from the fitted curve at half-maximal effect; % is scaled to controls: 0 for no effect and ±100 for the full control effect; nearly all actives have a fitted effect of over 55% in size
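V1b-HEK293 cells; cpd 30 min 37C; 25 nM vasopressin 5 min; lyse 10 min; AlphaScreen beads 5 hr RT. Normalized to DMSO basal and 25 nM vasopressin; AC50 by Hill fit.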
* hit, by the source's call; i = inactive; ? = inconclusive; . = no result given; [ ] = dose if it differs, or a comment. Unless noted, calls follow the shape of the dose curve; as a rule, active = well fitted curve in the direction sought with a large enough effect; inconclusive = small, poorly fitted or top-dose-only effect, or another doubt; inactive = no such curve, though single readings can be large; an effect the other way counts as inactive or inconclusive. These rows are one share of the data, so the mix of outcomes need not match the whole.

# | Molecule | Fluorescein fluor | Texas Red fluor | HEK293 cAMP cs
1 | C[C@@H](C(=O)O)c1cccc(C(=O)c2ccccc2)c1 | ? | i | 4.1%[25.6 µM]
2 | C[C@]12CCC3c4ccc(O)cc4CCC3C1CC(O)C2O (stereo partly drawn) | . | . | .
3 | C[C@H](CS)C(=O)N1CCC[C@H]1C(=O)O | i | i | -12.1%
4 | O=c1[nH]c(=O)n([C@@H]2C[C@H](O)[C@H](CO)O2)cc1C(F)(F)F | ? | i | 0.6%[25.6 µM]
5 | N[C@@H](Cc1ccc(O)c(O)c1)C(=O)O | ? | ? | 1.0%[25.6 µM]
6 | CN(C)CCCN1c2ccccc2CCc2ccccc21 | ? | i | 19.3%[25.6 µM]

# | Rhodamine fluor | ERK AVP block
1 | i | -2.8%[25.7 µM]
2 | . | -3.6%
3 | i | 26.5%
4 | i | 23.8%[25.7 µM]
5 | i | -4.0%[25.7 µM]
6 | i | 15.5%

A section taken from the entries so far, for reference:
# | Molecule | Fluorescein fluor | Texas Red fluor | HEK293 cAMP cs
2 | C[C@]12CCC3c4ccc(O)cc4CCC3C1CC(O)C2O (stereo partly drawn) | . | . | .
3 | C[C@H](CS)C(=O)N1CCC[C@H]1C(=O)O | i | i | -12.1%
4 | O=c1[nH]c(=O)n([C@@H]2C[C@H](O)[C@H](CO)O2)cc1C(F)(F)F | ? | i | 0.6%[25.6 µM]

# | Rhodamine fluor | ERK AVP block
2 | . | -3.6%
3 | i | 26.5%
4 | i | 23.8%[25.7 µM]

3 structures already listed, arranged by molar mass, low to high.
# | Molecule | Fluorescein fluor | Texas Red fluor | HEK293 cAMP cs
5 | N[C@@H](Cc1ccc(O)c(O)c1)C(=O)O | ? | ? | 1.0%[25.6 µM]
3 | C[C@H](CS)C(=O)N1CCC[C@H]1C(=O)O | i | i | -12.1%
1 | C[C@@H](C(=O)O)c1cccc(C(=O)c2ccccc2)c1 | ? | i | 4.1%[25.6 µM]

# | Rhodamine fluor | ERK AVP block
5 | i | -4.0%[25.7 µM]
3 | i | 26.5%
1 | i | -2.8%[25.7 µM]

Down the list, as entered above.
Fluorescein fluor, entries 3–6 → i, ?, ?, ?
